High-throughput results from PubChem BioAssay.
MT1-MMP act inh: blocks activation of human MT1-MMP | HT1080 RFP-PRO-GFP cells, GFP/RFP ratio fluorescence, overnight; percent of plate control window, DMSO zero | 360,000 compounds, 0.061% hits | P50281 | GFP/RFP ratio change, % at 20 µM;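 active = GFP/RFP ratio change of at least 30% with cell ATP level not reduced by more than half and red fluorescence within 50% of control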; note: strong numbers were not always called active
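Assay system: RFP-PRO-GFP reporter HT1080 cells; read-out basis: GFP/RFP fluorescence ratio; benchmarks: DMSO wells and RFP-L50D-GFP cells; doses: 20 µM single dose, 1% DMSO; schedule: overnight cell settling, then overnight compound exposure, 37 °C, 5% CO2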
eIF4H FP inh: inhibitors of RNA binding by human eIF4H; Q15056; eIF4H fluorescence polarization binding assay; inhibition, % at 35 µM; 290,000 compounds, 0.94% hits;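 active = 50% or more with normal probe brightness, or confirmed in later tests; inconclusive = above 50% with abnormal brightness, or retests that disagree; inactive = below 50% or failed in later tests; about a fifth of its hits are not listed in these tables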;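 note: calls also rest on retests at 20 µM and on dose response follow-up; 0% = protein and probe with vehicle and 100% = probe without protein; strong numbers were not always called active; many hits fall short of the cut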
Rce1 inh: blocks yeast Ras-converting enzyme; Q03530; calls only; 290,000 compounds, 0.27% hits; yeast membranes, quenched prenylated peptide cleavage fluorescence;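 active = fall in fluorescence gain of 50% or more versus controls, with final raw signal at or below 3038400; inconclusive = same 50% fall but final raw signal above 3038400; inactive = fall in fluorescence gain under 50%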;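 note: plate controls were neutral control wells for no effect and wells lacking membranes for full effect; tested at 10 µM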
Target sequence (Q03530 whole entry, looked up): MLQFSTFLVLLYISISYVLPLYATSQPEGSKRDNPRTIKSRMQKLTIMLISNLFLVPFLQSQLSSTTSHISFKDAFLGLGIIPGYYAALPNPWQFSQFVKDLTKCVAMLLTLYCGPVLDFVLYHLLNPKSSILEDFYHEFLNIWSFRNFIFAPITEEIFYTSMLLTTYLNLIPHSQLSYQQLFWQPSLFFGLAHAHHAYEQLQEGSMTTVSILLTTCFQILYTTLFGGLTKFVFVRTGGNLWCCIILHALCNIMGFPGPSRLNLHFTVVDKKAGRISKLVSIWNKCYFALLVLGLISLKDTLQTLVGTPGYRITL
Env fusion inh: inhibitors of HIV Env-mediated cell fusion. HeLa-JRFL Env/CEM21 cell fusion, luciferase. inhibition, % at 12.3 µM. 360,000 compounds, 1.1% hits;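 active = mean replicate inhibition score of at least 50 and every replicate individually at or above 50; inconclusive = only one of the two criteria met; inactive = mean below 50 and not all replicates reaching 50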;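 note: 0% = plate neutral controls and 100% = maraviroc near 300 nM; one replicate is shown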
UUG fidelity: yeast start codon fidelity modulation | S. cerevisiae UUG-firefly luciferase reporter, luminescence/redox ratio | activity score, % at 18.7 µM | 350,000 compounds, 0.13% hits | AID 602363;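 active = replicate mean at a twofold rise or more, about +100% in these data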;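 note: firefly luciferase made from a UUG start codon reports start codon fidelity; reporter light over untreated wells divided by growth signal over untreated wells; some hits fall short of that in this replicate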
CSC inhib: blocks cancer stem cells; cancer stem cell-like cells viability, luminescence; inhibition, % at 7.5 µM; 300,000 compounds, 1.1% hits; AID 2717;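 active = mean at 75% or more and at least half the replicates too; inconclusive = mean and replicates disagree; tested in HMLE shEcad cells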;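 note: 0% = median of negative and 100% = median of positive control wells; the first replicate is given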
PABP polyA inh: PABP-poly(A) binding inhibition. PABP-poly(A) RNA binding, fluorescence polarization. 290,000 compounds, 1% hits. inhibition, % at 35 µM;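 active = 50% or more with normal probe brightness, or confirmed in later tests; inconclusive = above 50% with abnormal brightness, or retests that disagree; inactive = below 50% or failed in later tests; about a fifth of its hits are not listed in these tables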;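 note: calls also rest on retests at 20 µM and on dose response follow-up; controls were probe without protein and protein plus probe with vehicle; some compounds called inactive have numbers as strong as hits; many hits fall short of the cut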
eIF4H FP inh retest: also measured in eIF4H FP inh; calls as there; inhibition, %; compound at 20 µM; confirmation average;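 mean of two retest wells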
PABP polyA inh retest: further read-out of PABP polyA inh, marked with its call; inhibition, %; compound at 20 µM; confirmation repeats;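 mean of two retest wells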
MT1-MMP act inh RFP: recorded beside MT1-MMP act inh, whose call it bears; RFP signal change, %; measured here: RFP expression control read;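 0 = vehicle wells; hits needed this value within 50% of zero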
Numbers without * were called inactive; i = inactive; ? = inconclusive; nt = no result given; & = joins results of further samples.

SMILES	MT1-MMP act inh	MT1-MMP act inh RFP	eIF4H FP inh	Rce1 inh	Env fusion inh	UUG fidelity	CSC inhib	PABP polyA inh	others
COc1ccc(/C=C/C(=O)OCC(=O)Nc2ccc(Cl)cn2)cc1	-30	-26	-4	i	8	-3	5	-5
COc1ccc(N2C(=O)C3NN=C(C(=O)OCc4ccccc4)C3C2=O)cc1 (stereo not drawn)	-1	0	-1	i	-11	-7	nt	-2
Cc1ccc(S(=O)(=O)N2c3ccccc3NC(=O)C2CC(=O)Nc2ccccc2)cc1 (stereo not drawn)	-3	0	1	i	nt	-7	-3	17
Cc1ccc(C(=O)Nc2cc3c(oc2=O)CCCC3=O)cc1	-3	2	11	i	-62	nt	-14	-4
CCOC(=O)Cc1csc(NC(=O)CSc2nnnn2-c2ccc(C)cc2C)n1	0	1	5	i	nt	-11	-17	0
O=C(CSc1nnc(-c2ccc(Cl)cc2Cl)n1C1CCCCC1)N1CCCC1	-2	-4	-6	i	nt	-18	-13	-1
CCn1c(C)nc2cc(-c3nnc(-c4c(-c5ccccc5)noc4C)o3)ccc21	3	-5	-6	i	?	-23	38	-7
O=C(NCc1ccc(Cl)cc1)NCC(F)(F)F	5	6	3	i	3	-6	2	4
Cc1ccc(S(=O)(=O)NCCC(=O)NNC(=O)C2COc3ccccc3O2)cc1 (stereo not drawn)	-3	2	nt	i	-11	-27	-1	nt
O=C(O/N=C/c1cccc([N+](=O)[O-])c1)C1CC1	2	4	13	i	nt	-7	3	12
Nc1ccc(Cl)cc1/C(=N/O)c1ccccc1	7	2	4	i	-58	-11	-12	16
C=CCNC(=S)Nc1ccc2nc(C)c(C)nc2c1	3	2	8	i	-65	-20	-3	6
COC(=O)c1ccc(NC(=O)C(OC)c2ccccc2)cc1 (stereo not drawn)	5	-1	6	i	18	nt	-12	3
O=C(Nc1cccc(Cl)c1)N1CCSc2cc(Cl)ccc21	4	-6	1	i	0	-12	15	5
O=C(Nc1ccc(Cc2ccncc2)cc1)c1ccc(S(=O)(=O)N2CCOCC2)cc1	-4	-29	4	i	nt	-12	-3	-7
CC(=O)Nc1c(Cl)c(Cl)c2c(c1Cl)C(=O)c1cc(Cl)ccc1-2	-1	-5	nt	nt	25	-6	nt	nt
O=C(Nc1ccc(F)cc1)NC1CCN(Cc2ccccc2)CC1	2	1	-6	i	-7	nt	-8	-7
Cc1ccc(NC(=O)C2CCN(c3ncnc4c3nc3n4CCCCC3)CC2)cc1Cl	1	-15	-10	i	11	-14	21	9
C=CCCN(Cc1ccccc1)S(=O)(=O)c1ccccc1Br	-5	1	-2	i	41	-20	8	-6
COC(c1ccc(Cl)cc1)(c1ccc(Cl)cc1)C(Oc1nc(C)cc(C)n1)C(=O)O (stereo not drawn)	-7	-3	-11	i	8	-2	2	0
O=C(N/N=C/c1c(Cl)cccc1Cl)C(=O)NC1CC1	1	1	-3	i	-3	nt	2	-1
CC(C)COc1ccc(C(=O)N/C(=C\c2cccc([N+](=O)[O-])c2)C(=O)O)cc1	4	2	2	i	-16	3	-8	3
CCOC(=O)CSc1nc2ccccc2c(=O)n1CC1COc2ccccc2O1 (stereo not drawn)	-7	-7	-6	i	65*	-7	-13	0
C=C1Cn2c(nnc2-c2ccc(Cl)cc2)S1	5	5	-3	i	18	-11	-22	3
Cc1ccc(NC(=O)C2(C)CCN2C(=O)c2ccccc2CCc2ccccc2)cc1C (stereo not drawn)	-3	-1	nt	nt	9	-1	nt	nt

Remaining list, next part
SMILES	MT1-MMP act inh	MT1-MMP act inh RFP	eIF4H FP inh	Rce1 inh	Env fusion inh	UUG fidelity	CSC inhib	PABP polyA inh	others
Cc1ccc(C)c(NC(=O)c2ccccc2Sc2ccc([N+](=O)[O-])cc2Cl)c1	-2	-4	-8	i	24	nt	44	5
COc1ccc(-c2cc(C(=O)Nc3ccc(OC)c(OC)c3)[nH]n2)c(C)c1	3	-2	nt	nt	-12	-13	nt	nt
O=C(CCS(=O)(=O)c1ccc(Br)cc1)Nc1ccc2c(c1)OCO2	2	0	11	i	-35	-16	9	2
Cc1noc(C)c1S(=O)(=O)Nc1ccc(C(=O)N2CCN(c3ccc(Cl)cc3)CC2)cc1	1	-19	-5	i	nt	13	4	-5
CCc1c(C(=O)N/N=C/c2ccc(C)o2)csc1C	1	6	-1	i	-417	5	-4	-10
COc1ccc(CCNCC2C(Oc3ccc(Cl)cc3)C(=O)N2c2ccccc2C)cc1OC (stereo not drawn)	-4	-7	4	i	7	nt	10	-1
Cc1cccc(C)c1NC(=S)/N=C/N(C)C	5	2	-7	i	-4	8	-11	-9
CCN(CC)c1nc(Nc2ccccc2)nc(Oc2ccc(=O)n(C)n2)n1	7	-5	-14	i	51	-14	6	0
COC(=O)c1ccccc1S(=O)c1snnc1C (stereo not drawn)	0	2	-10	i	29	nt	-5	3
CCn1c(SCC(=O)N2CCCCC2C)nc2c1c(=O)n(C)c(=O)n2C (stereo not drawn)	-1	0	-14	i	-9	-2	nt	-7
COc1ccccc1N(C(=O)c1snc(C(N)=O)c1N)C(C(=O)NC1CCCC1)c1ccco1 (stereo not drawn)	0	0	0	i	nt	nt	-6	55	eIF4H FP inh retest=2;PABP polyA inh retest=0
COc1ccccc1NS(=O)(=O)c1cccc(NC(=O)CCNC(=O)c2ccccc2OC)c1	4	-5	nt	nt	8	-23	nt	nt
Cc1nc(CNC(=O)CC2C(=O)NCCN2Cc2ccc(F)cc2)cs1 (stereo not drawn)	-4	1	8	i	1	14	-7	8
COc1ccc(C(c2c(C)[nH][nH]c2=O)c2c(C)[nH][nH]c2=O)cc1Br	-3	1	-14	i	2	-24	-1	8
CCC(=O)Nc1ccc(Nc2nc(Cl)nc(Nc3ccc(NC(=O)CC)cc3)n2)cc1	1	1	11	i	10	nt	-12	2
COc1cc(NC(=S)N2CCN(C(c3ccccc3)c3ccccc3)CC2)cc(OC)c1	-26	-4	-7	i	nt	-13	14	1
O=c1nc(SCc2ccccc2Cl)nc(-c2ccc(Cl)cc2)[nH]1	2	3	4	i	5	-13	nt	5
COc1ccc(C(=O)NCCCc2nc3ccccc3n2Cc2cc(C)ccc2C)cc1OC	0	-4	-7	i	11	-8	-20	3
O=C(O)/C=C/C(=O)N1CCN(c2ccc(F)cc2)CC1	-3	2	1	i	2	nt	-10	-2
NC(=O)COc1ccc(/C=C2\C(=O)ON=C2c2ccccc2)cc1	-1	2	nt	nt	-8	-16	2	nt
COc1ccc(NS(=O)(=O)c2ccc(O)c(C(=O)OCC(=O)NC(C)C3CC4CCC3C4)c2)cc1 (stereo not drawn)	-7	-1	-6	i	16	-16	nt	11
C[C@H]1CN([C@@H](C)CO)C(=O)c2cc(-c3cccc(F)c3)cnc2O[C@@H]1CN(C)S(C)(=O)=O	0	1	nt	nt	-8	-5&20	nt	nt
O=C(CN1CCN(S(=O)(=O)c2ccc(F)cc2)CC1)Nc1ccc2c(c1)OCCO2	4	4	4	i	nt	5	0	-6
CCC(C(=O)c1ccccc1)N(C(=O)c1ccccc1Cl)N1C(=O)C2C3C=CC(C3)C2C1=O (stereo not drawn)	4	-4	-12	i	109*	8	1	-8
COc1ccc2c(=O)c(C(=O)NCc3ccccc3)c[nH]c2c1	3	4	2	i	5	-9	13	13

The results go on.
SMILES	MT1-MMP act inh	MT1-MMP act inh RFP	eIF4H FP inh	Rce1 inh	Env fusion inh	UUG fidelity	CSC inhib	PABP polyA inh	others
COc1ccc(NC(=O)c2cn(-c3ccccc3)nc2SC)cc1	2	1	-7	i	0	nt	11	5
CCc1ccc(NC2=NCC(=O)N2c2ccc3c(c2)OCCO3)cc1	0	4	-3	i	nt	4	10	-1
CCC(CC)c1nnc(NC(=O)Oc2ccccc2)s1	3	2	-2	i	19	-8	8	-5
COc1ccc(C2(C)NC(=O)N(CC(=O)NCc3ccccc3)C2=O)cc1OC (stereo not drawn)	3	2	3	i	-5	-19	26	-5
Cc1oc2c(c(C)cc3oc(=O)c(CC(=O)NCC(=O)NCC(=O)O)c(C)c32)c1C	1	2	1	i	5	nt	11	9
O=C(NC(=S)Nc1cccc(Cl)c1N1CCCC1)c1ccc(-c2cccc([N+](=O)[O-])c2)o1	-4	1	25	i	nt	-24	28	27
Cc1ccc(C(=O)N/C(=C\c2cn(C)c3ccccc23)C(=O)NCCCN2CCOCC2)cc1	1	1	-5	i	-9	nt	-15	-7
Cc1ccc(S(=O)(=O)N(C)c2ccccc2C(=O)Nc2ccc3c(c2)OCCO3)cc1	3	0	-1	i	11	-7	8	-6
CCOC(=O)C1(Cc2ccccc2C)CCCN(Cc2ccc(NC(C)=O)cc2)C1 (stereo not drawn)	-1	2	-8	i	21	nt	-12	7
CC(C)CC(=O)Nc1ccc(N2CCN(S(C)(=O)=O)CC2)cc1	1	3	-6	i	10	nt	1	?
CCCCNc1c(-c2ccc(SC3CCCCC3)c(OC)c2)nc2ccc(C)cn12	-2&6	-18&-30	nt	nt	45&-13	-20	101*	nt
Cn1cc(S(=O)(=O)Nc2ccc(F)c(Cl)c2)c(=O)n(C)c1=O	4	4	-3	i	nt	-13	-2	6
NC(=O)c1nn(Cc2ccccc2)c(=O)c2ccccc12	0	1	-1	i	-27	-9	-3	-2
C=CCNC(=S)N/N=C/c1ccc(-c2cc(Cl)ccc2Cl)o1	-1	4	-7	i	nt	-10	5	2
CN1CC(=O)N(CC(=O)Nc2ccc(SC(F)F)cc2)C1=O	5	5	-7	i	-4	nt	5	6
COc1ccc(C(=O)Nc2cc3c(cc2C(=O)O)OCCCO3)c(OC)c1	1	5	-6	i	0	-6	-5	2

Pulled one by one from the entries so far (2):
SMILES	MT1-MMP act inh	MT1-MMP act inh RFP	eIF4H FP inh	Rce1 inh	Env fusion inh	UUG fidelity	CSC inhib	PABP polyA inh	others
COc1ccc(C2(C)NC(=O)N(CC(=O)NCc3ccccc3)C2=O)cc1OC (stereo not drawn)	3	2	3	i	-5	-19	26	-5
O=C(NC(=S)Nc1cccc(Cl)c1N1CCCC1)c1ccc(-c2cccc([N+](=O)[O-])c2)o1	-4	1	25	i	nt	-24	28	27

In the list so far, 9 have an aryl thioether with sulfur outside any ring:
SMILES	MT1-MMP act inh	MT1-MMP act inh RFP	eIF4H FP inh	Rce1 inh	Env fusion inh	UUG fidelity	CSC inhib	PABP polyA inh	others
CCOC(=O)Cc1csc(NC(=O)CSc2nnnn2-c2ccc(C)cc2C)n1	0	1	5	i	nt	-11	-17	0
O=C(CSc1nnc(-c2ccc(Cl)cc2Cl)n1C1CCCCC1)N1CCCC1	-2	-4	-6	i	nt	-18	-13	-1
CCOC(=O)CSc1nc2ccccc2c(=O)n1CC1COc2ccccc2O1 (stereo not drawn)	-7	-7	-6	i	65*	-7	-13	0
Cc1ccc(C)c(NC(=O)c2ccccc2Sc2ccc([N+](=O)[O-])cc2Cl)c1	-2	-4	-8	i	24	nt	44	5
CCn1c(SCC(=O)N2CCCCC2C)nc2c1c(=O)n(C)c(=O)n2C (stereo not drawn)	-1	0	-14	i	-9	-2	nt	-7
O=c1nc(SCc2ccccc2Cl)nc(-c2ccc(Cl)cc2)[nH]1	2	3	4	i	5	-13	nt	5
COc1ccc(NC(=O)c2cn(-c3ccccc3)nc2SC)cc1	2	1	-7	i	0	nt	11	5
CCCCNc1c(-c2ccc(SC3CCCCC3)c(OC)c2)nc2ccc(C)cn12	-2&6	-18&-30	nt	nt	45&-13	-20	101*	nt
CN1CC(=O)N(CC(=O)Nc2ccc(SC(F)F)cc2)C1=O	5	5	-7	i	-4	nt	5	6

This is a subset; rates above refer to the full screens.
